Screening results deposited in PubChem BioAssay by National Center for Advancing Translational Sciences (NCATS).
miR-21 FLuc – qHTS Assay for Modulators of miRNAs and/orActivators of miR-21 | HeLa miR-21 FLuc reporter, luciferase, 48 h | Potency, µM (top dose mostly 38.3 µM), without a hit: top-dose reporter change, positive = more light | 340,000 tested, under 10 active | AID 2288, 2010; active = well fitted rising curve with a large enough effect; inconclusive = small, poorly fitted or top-dose-only effect; inactive = no such curve, though single readings can be large or run the other way;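 further: % of control where 0% means no effect; miR-21 action dims this reporter so a rising signal means less miR-21 action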
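Luminescence from a firefly luciferase reporter carrying a miR-21 binding site downstream, stably expressed under a CMV promoter in HeLa cells that make miR-21 endogenously, reports miRNA modulation after 48 h compound exposure up to approximately 40uM final.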
Rango dissoc inh – qHTS Assay for Inhibitors of RanGTP induced Rango (Ran-regulated importin-beta cargo) - Importin beta complex dissociation; actives 0.071% (n = 340,000); Potency, µM (titrated, usually from 46.1 µM), for inactives: at the highest dose activity change, negative = inhibition; Snurportin-1 (Homo sapiens) + GTP-binding nuclear protein Ran (Homo sapiens) + Importin …; Biochemical FRET Rango-importin beta, RanGTP-induced dissociation; active means falling FRET ratio curve, often poorly fitted, with flat reads before Ran was added; inconclusive means other falling curves, or compound fluorescence or quenching; inactive means flat or rising ratio curve;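 further: potency means the concentration at half of the fitted maximal effect; % of control where 0% means no effect; nearly all actives have a fitted effect of over 45% in size; -100% = wells without RanGTP and RCC1; the record marks most hits as doubtful in a second field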
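Compounds sat 5 min at room temperature with 0.1 uM Rango biosensor plus 0.25 uM importin beta, then FRET pre-read. RanGTP-RCC1 (0.6 uM Ran, 2mM GTP, 0.2 uM RCC1) added for 45 min, and the CFP/YFP post-read measured blocked complex dissociation.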
GLA inh pH 4.5 – qHTS Assay for Inhibitors of Human alpha-Galactosidase at pH 4.5; Alpha-galactosidase A (Homo sapiens), P06280; purified enzyme, 4-MU-alpha-Gal fluorescence, pH 4.5; activity change, negative = inhibition, % at 105 µM; 230,000 tested, under 10 active; AID 1467, 2008; inconclusive = small, poorly fitted or top-dose-only inhibition, or a rising curve; inactive = flat fitted curve, though single readings scatter; no compound was filed as active;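 further: 0% = full activity with enzyme and -100% = basal without enzyme; dose as in the result columns while the protocol names 77 µM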
Target sequence (P06280 whole entry, looked up): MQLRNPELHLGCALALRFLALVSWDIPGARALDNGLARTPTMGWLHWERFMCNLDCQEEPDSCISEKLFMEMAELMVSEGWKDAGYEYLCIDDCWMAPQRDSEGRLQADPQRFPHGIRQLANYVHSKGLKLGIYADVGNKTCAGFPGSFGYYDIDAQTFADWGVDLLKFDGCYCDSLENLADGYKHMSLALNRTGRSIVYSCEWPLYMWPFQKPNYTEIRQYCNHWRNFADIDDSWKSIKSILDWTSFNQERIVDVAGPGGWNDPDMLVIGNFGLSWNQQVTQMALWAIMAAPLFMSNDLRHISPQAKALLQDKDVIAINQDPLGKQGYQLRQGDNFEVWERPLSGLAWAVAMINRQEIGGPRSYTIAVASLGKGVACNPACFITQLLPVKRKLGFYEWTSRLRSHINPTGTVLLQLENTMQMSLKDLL
Rango-impB inh – qHTS Assay for Inhibitors of Rango (Ran-regulated importin-beta cargo) - Importin beta complex formation. Importin subunit beta-1 (Homo sapiens), Q14974. Rango CFP/YFP FRET sensor + importin beta, 45 min. Potency, µM (titrated, usually from 92.2 µM), inactives show top-dose inhibition of complex formation. actives 0.031% (n = 340,000); active = rising FRET ratio curve, often small or poorly fitted; inconclusive = mostly compound fluorescence or quenching in the first reads; inactive = flat curves in all reads;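 further: potency means the concentration at half of the fitted maximal effect; 0% = DMSO wells and 100% = buffer wells lacking importin beta; nearly all actives have a fitted effect of over 15% in size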
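FRET biosensor (snurportin 1 IBB flanked by EYFP and cerulean), 50 nM, with compound 5 min, then 0.125 microM importin beta in PBS, 1 mM DTT, 0.02% Tween-20, 0.1% BSA. CFP/YFP ratio read after 45 min at room temperature; pre-read flags interference.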
Starred values were filed as active, the others as inactive; & = joins results of further samples. A portion of the library; the hit share may differ from the screen's.

COc1ccc(C2C(C(=O)NCc3cccnc3)c3ccccc3C(=O)N2C)cc1OC (stereo not given) was read as miR-21 FLuc -3%, Rango dissoc inh 0%, GLA inh pH 4.5 -16 and Rango-impB inh 2.4%.
For O=C(/C=C/c1ccc(Cl)cc1)N1CCN(c2ncccn2)CC1 the results were miR-21 FLuc -4% and GLA inh pH 4.5 -9.
For CC(CN1CCOCC1)OC(=O)C(c1ccccc1)c1ccccc1 (stereo not given) the results were miR-21 FLuc 2%, Rango dissoc inh 22%, GLA inh pH 4.5 -3 and Rango-impB inh 0.7%.
Cc1cc2cc(CNC(=S)NC3CCCCC3)ccc2n1C was read as miR-21 FLuc 0%, Rango dissoc inh 1%, GLA inh pH 4.5 6 and Rango-impB inh -0.7%.
For O=[N+]([O-])c1ccccc1/C=C/C=N/n1c(-c2cc(-c3ccccc3)n[nH]2)n[nH]c1=S the results were miR-21 FLuc -9%, Rango dissoc inh -7%, GLA inh pH 4.5 -10 and Rango-impB inh -0.2%.
`CCOc1ccc(CN(C)c2ccc(S(=O)(=O)N3CCN(C)CC3)cc2[N+](=O)[O-])cc1OC` gave Rango dissoc inh -10% and Rango-impB inh -4.0%.
CCn1c(C(C)NC(=O)c2cccc(C)c2)n[nH]c1=S (stereo not given) was read as miR-21 FLuc -3%, Rango dissoc inh 1%, GLA inh pH 4.5 6 and Rango-impB inh 2.2%.
For O=C(c1ccco1)N1CCN(C(c2ccccc2)c2nnnn2Cc2cccs2)CC1 (stereo not given) the results were miR-21 FLuc -6%, Rango dissoc inh -5%, GLA inh pH 4.5 1 and Rango-impB inh -0.1%.
For CCCCNC(=O)c1cc(-c2ccc(OC)cc2)on1 the results were miR-21 FLuc -56%, Rango dissoc inh 0%, GLA inh pH 4.5 -4 and Rango-impB inh 0.2%.
For Cc1ccc(N=Nc2c(C)[nH]n(-c3ccccc3)c2=O)cc1Br the results were miR-21 FLuc 2%, Rango dissoc inh inconclusive and Rango-impB inh 1.4%.
For O=C(CCl)N(Cc1ccccc1)c1ccccc1 the results were miR-21 FLuc inconclusive, Rango dissoc inh 23%, GLA inh pH 4.5 3 and Rango-impB inh 7.4%.
For Cc1cccc(N2CC(C(=O)O)CC2=O)c1C (stereo not given) the results were miR-21 FLuc 7%, Rango dissoc inh -3%, GLA inh pH 4.5 13 and Rango-impB inh -2.8%.
`O=C(NCc1ccccc1)c1cccc(NS(=O)(=O)c2cccc3cccnc23)c1` gave miR-21 FLuc -11%, Rango dissoc inh -1%, GLA inh pH 4.5 3 and Rango-impB inh -1.9%.
For Cc1ccc2c(c1)N(S(=O)(=O)c1ccc(CN3C(=O)c4cccnc4C3=O)s1)CCO2 the results were miR-21 FLuc 9%, Rango dissoc inh -18% and Rango-impB inh 1.5%.
`O=C(CSc1ncnc2ccccc12)NCCc1ccccc1` gave miR-21 FLuc -8%, Rango dissoc inh -18%, GLA inh pH 4.5 -4 and Rango-impB inh -1.7%.
Screening CCCN1C(=O)C2(/C(=C(\O)c3ccc4c(c3)OCCO4)C(=O)C(=O)N2CCCOC)c2ccccc21 (stereo not given) returned miR-21 FLuc -1%, Rango dissoc inh -3%, GLA inh pH 4.5 -26 and Rango-impB inh 0.7%.
For CCCCc1nc(Cl)c(CO)n1Cc1ccc(-c2ccccc2-c2nnn[nH]2)cc1 the results were Rango dissoc inh -11% and Rango-impB inh -0.9%.
For Cc1ccc(N(C(=O)Nc2ccccc2)C2=NCCC2)cc1 the results were miR-21 FLuc -16%, Rango dissoc inh 2%, GLA inh pH 4.5 -8 and Rango-impB inh 3.5%.
`COc1ccccc1CNC(=O)CCS(=O)(=O)c1ccc2c(c1)CC(C)N2C(=O)C1CC1` (stereo not given) gave miR-21 FLuc -3%&24%, Rango dissoc inh -9% and Rango-impB inh -0.2%.
For Cc1ccc(NC(=O)N[C@H](C(=O)O)C(C)C)c(C)c1 the results were miR-21 FLuc -4%, Rango dissoc inh 2%, GLA inh pH 4.5 6 and Rango-impB inh 0.0%.
CCCC1C2CN(C(C)=O)CC=C2C(C#N)=C(N)C1(C#N)C#N (stereo not given) was read as miR-21 FLuc -1%, Rango dissoc inh inconclusive, GLA inh pH 4.5 -3 and Rango-impB inh inconclusive.
`COc1cc(-c2nn3c(-c4cccnc4)nnc3s2)cc(OC)c1OC` gave miR-21 FLuc 0%, Rango dissoc inh 35%, GLA inh pH 4.5 1 and Rango-impB inh 1.3%.
For Cc1ccc(S(=O)(=O)N(CCCN(C)C)Cc2ccc3c(c2)OCO3)cc1 the results were miR-21 FLuc 1%, Rango dissoc inh 0% and Rango-impB inh 2.3%.
For COc1ccc(-c2nc3ccccc3n2Cc2ccc(C)cc2)cc1 the results were miR-21 FLuc -24%, Rango dissoc inh 23%, GLA inh pH 4.5 -6 and Rango-impB inh 0.4%.
`COCC(=O)N1CCC(Oc2ccc(C(=O)NCc3csc(C(C)C)n3)cc2)CC1` gave miR-21 FLuc 2%, Rango dissoc inh 15% and Rango-impB inh -1.1%.
CSc1nc(N)nc(SCC(=O)C(C)(C)C)c1C#N was read as miR-21 FLuc -58%, Rango dissoc inh 16%, GLA inh pH 4.5 0 and Rango-impB inh -2.1%.
For CCCCCC(=O)NNC1=NCC(Cc2ccccc2)S1 (stereo not given) the results were miR-21 FLuc 1%, Rango dissoc inh -7%, GLA inh pH 4.5 -2 and Rango-impB inh 0.0%.
Screening CC(=O)c1cccc(NC(=O)COC(=O)Cn2cnc3ccccc32)c1 returned Rango dissoc inh 5% and Rango-impB inh -4.9%.
`Cc1ccc(-c2csc(=S)n2CC(=O)OCC(=O)NCc2ccc(F)cc2)cc1` gave miR-21 FLuc 13% and GLA inh pH 4.5 4.
For N#CCS(=O)(=O)c1ccccc1 the results were miR-21 FLuc 0%, Rango dissoc inh 21% and Rango-impB inh 0.1%.
CC(=O)C1=C(c2ccccc2)OC(N)=C(C#N)C1c1ccccc1C (stereo not given) was read as miR-21 FLuc 1%, Rango dissoc inh 0%, GLA inh pH 4.5 5 and Rango-impB inh 0.5%.
For COc1ccccc1C(=O)Nc1cc(C)ccc1NC(=O)c1ccco1 the results were miR-21 FLuc 5%, Rango dissoc inh -4% and Rango-impB inh 1.6%.
`Cc1ccc(OCC(O)CNS(=O)(=O)c2ccccc2C(=O)N2CCCCC2)cc1` (stereo not given) gave miR-21 FLuc 4%, Rango dissoc inh -1%, GLA inh pH 4.5 2 and Rango-impB inh 1.7%.
`COc1ccc(OC)c(S(=O)(=O)Oc2ccc(N)c3ccccc23)c1` gave Rango dissoc inh -29% and Rango-impB inh -2.7%.
CCn1c(SCC(=O)O)nnc1-c1cccnc1 was read as miR-21 FLuc 0%, Rango dissoc inh -3%, GLA inh pH 4.5 10 and Rango-impB inh -0.3%.
Screening CC(C)c1cccc(C(C)C)c1OC(=O)[C@H]1OC(C(C)(C)C)=C[C@@H]1c1ccccc1 returned Rango dissoc inh 9% and Rango-impB inh -3.7%.
CCc1ccc(CN2CCC(Oc3ccc(C(=O)NCc4ccccn4)cc3)CC2)o1 was read as miR-21 FLuc 8%, Rango dissoc inh -4% and Rango-impB inh -3.8%.
Screening CC(=O)Nc1ccc(NC(=O)C2CCN(S(=O)(=O)c3cccc4nonc34)CC2)cc1 returned miR-21 FLuc -7%, Rango dissoc inh 9%, GLA inh pH 4.5 1 and Rango-impB inh 0.7%.
For Cc1cc(C)cc(OCC(=O)OCC(=O)NCCC2=CCCCC2)c1 the results were miR-21 FLuc -4%, Rango dissoc inh 11%, GLA inh pH 4.5 -3 and Rango-impB inh inconclusive.
O=C(O)CSCc1nc2ccccc2[nH]1 was read as miR-21 FLuc 0%, Rango dissoc inh 7%, GLA inh pH 4.5 -7 and Rango-impB inh -4.1%.
`O=C(C(=O)N1CCN(c2cccc(Cl)c2)CC1)c1cn(CC(=O)N2CCOCC2)c2ccccc12` gave miR-21 FLuc -1%, Rango dissoc inh -6% and Rango-impB inh 0.2%.
`COc1cccc(NC(=O)Nc2nc(SC)ns2)c1` gave miR-21 FLuc 1%, Rango dissoc inh -3% and Rango-impB inh -2.3%.
For COc1cc2c(cc1OC)C(C(=O)O)C(c1ccc(C)o1)N(C)C2=O (stereo not given) the results were miR-21 FLuc -2%, Rango dissoc inh 0%, GLA inh pH 4.5 7 and Rango-impB inh 1.6%.
Screening Oc1c(Cl)cc(Cl)cc1C=Nc1ccccc1N1CCCC1 returned miR-21 FLuc -7% and GLA inh pH 4.5 -2.
For CCCc1nc(-c2ccccc2O)n(-c2ccccc2)n1 the results were miR-21 FLuc -2%, Rango dissoc inh 0%, GLA inh pH 4.5 -9 and Rango-impB inh -1.1%.
CCC(=O)N/C(=N/c1nc(C)cc(C)n1)Nc1ccc(C)cc1 was read as miR-21 FLuc -1%, Rango dissoc inh 3% and Rango-impB inh 1.7%.
C=CCCC(=O)Nc1nc(C)c(-c2csc(Nc3cc(OC)ccc3OC)n2)s1 was read as miR-21 FLuc 24%, Rango dissoc inh -16%, GLA inh pH 4.5 -2 and Rango-impB inh -0.5%.
`CCc1cccc2c(C(=O)COC(=O)c3cnc(C)cn3)c[nH]c12` gave Rango dissoc inh -16% and Rango-impB inh 1.0%.
O=C(CSc1ccccn1)Nc1cccc2ccccc12 was read as miR-21 FLuc -16%, Rango dissoc inh -5%, GLA inh pH 4.5 -2 and Rango-impB inh -0.3%.
Screening CCC(=O)N1c2ccc(S(=O)(=O)CCC(=O)N3CCN(c4ccccc4)CC3)cc2CC1C (stereo not given) returned miR-21 FLuc 5%, Rango dissoc inh 20%, GLA inh pH 4.5 -22 and Rango-impB inh 0.5%.
`COc1ccc(NS(=O)(=O)c2ccc(F)c(Cl)c2)cn1` gave miR-21 FLuc 0%, Rango dissoc inh -4% and Rango-impB inh 0.4%.
`C/C(=N\NC(=O)c1ccn(C)n1)c1ccco1` gave miR-21 FLuc -41%, Rango dissoc inh 4% and Rango-impB inh -3.4%.
`Cc1noc(C)c1CSCC(=O)Nc1cc(Cl)ccc1N1CCOCC1` gave miR-21 FLuc -1%, Rango dissoc inh 11% and Rango-impB inh -1.6%.
`O=C(Nc1nncs1)c1cc(-c2ccco2)nc2ccccc12` gave Rango dissoc inh -7% and Rango-impB inh -0.3%.
Screening CC(=O)c1c(C)[nH]c(C(=O)COC(=O)c2cccc(S(=O)(=O)N(C)c3ccccc3)c2)c1C returned miR-21 FLuc 24%, Rango dissoc inh 7%, GLA inh pH 4.5 9 and Rango-impB inh -0.2%.
`O=C(N/N=C/c1ccoc1)c1ccccc1Br` gave miR-21 FLuc -6%, Rango dissoc inh 10% and Rango-impB inh 5.3%.
C/C(CCc1ccccc1)=N\NC(=O)CCc1ccccc1 was read as miR-21 FLuc -6%, Rango dissoc inh 4%, GLA inh pH 4.5 11 and Rango-impB inh 0.9%.
Screening Cc1ccc(S(=O)(=O)CC(=O)Nc2ncc([N+](=O)[O-])s2)cc1 returned miR-21 FLuc 0%, Rango dissoc inh -12% and Rango-impB inh -0.2%.
`CC(=O)NCCOc1ccc(C(=O)O)cc1` gave miR-21 FLuc 0%, Rango dissoc inh -16%, GLA inh pH 4.5 1 and Rango-impB inh 1.9%.
Screening COc1ccc(NC(=S)N(CCN2CCCCC2)Cc2ccco2)cc1 returned miR-21 FLuc 1%, Rango dissoc inh -13%, GLA inh pH 4.5 -2 and Rango-impB inh -0.8%.
Screening Cc1ccc2[nH]cc(CCCN3C(=O)c4ccccc4C3=O)c2c1 returned miR-21 FLuc 1%, Rango dissoc inh 2%, GLA inh pH 4.5 -5 and Rango-impB inh 4.0%.

Two records picked at random from the list so far, as already listed:
`O=C(N/N=C/c1ccoc1)c1ccccc1Br` gave miR-21 FLuc -6%, Rango dissoc inh 10% and Rango-impB inh 5.3%.
C/C(CCc1ccccc1)=N\NC(=O)CCc1ccccc1 was read as miR-21 FLuc -6%, Rango dissoc inh 4%, GLA inh pH 4.5 11 and Rango-impB inh 0.9%.
